Screens as filed in PubChem BioAssay.
RanGTP-Impb inh: inhibitors of RanGTP-importin-beta interaction, primary screen, biochemical, FRET, CFP-Ran, YFP-importin-beta, homogeneous; Ran GTPase (GTP-bound) - importin-beta complex; cell-free CFP-Ran/YFP-importin-beta FRET ratio; inhibition, % (no concentration beside the values); 300,000 compounds, 1.1% hits;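 active means most replicates above 15%; inconclusive means exactly half above 15%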;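 further: 0% = DMSO wells and 100% = Ran loaded with GDP instead of GTP; wells of about 40 µL received 100 nL stock; the first replicate is given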
HNF4A DNA FP: change in binding of human HNF4A to DNA, primary screen, biochemical, fluorescence polarization, FITC-DNA. 1 h. 360,000 compounds, 0.3% hits. Hepatocyte nuclear factor 4-alpha (Homo sapiens), P41235. AID 1224865, 2016. activity change, % at 10 µM; in the data active means activity change above about 30%, passing the limit was not always enough;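 further: controls were the assay level and a saturating level of protein; the project sought stronger binding though the title names inhibitors; some compounds called inactive have numbers as strong as hits; positive values seem to mean higher polarization but the record does not say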
Target sequence (P41235 whole entry, looked up): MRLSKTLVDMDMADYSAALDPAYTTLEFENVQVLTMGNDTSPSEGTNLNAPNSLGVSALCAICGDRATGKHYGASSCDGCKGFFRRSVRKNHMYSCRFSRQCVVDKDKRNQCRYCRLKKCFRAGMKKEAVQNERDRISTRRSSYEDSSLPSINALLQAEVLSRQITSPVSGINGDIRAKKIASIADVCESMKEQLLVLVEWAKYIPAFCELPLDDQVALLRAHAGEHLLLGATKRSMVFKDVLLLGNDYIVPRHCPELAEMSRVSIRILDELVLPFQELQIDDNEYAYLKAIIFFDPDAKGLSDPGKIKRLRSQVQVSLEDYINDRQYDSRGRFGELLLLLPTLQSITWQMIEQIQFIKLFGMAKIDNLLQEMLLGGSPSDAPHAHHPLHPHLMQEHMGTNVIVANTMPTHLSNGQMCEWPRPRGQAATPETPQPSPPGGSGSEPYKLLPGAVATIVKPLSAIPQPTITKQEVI
UCH37 DUB inh: inhibitors of human UCH37 deubiquitinase, primary screen, biochemical, Ub-AMC cleavage, fluorescence; inhibition, % (test concentration not listed); purified proteasome/UCH37; AID 588478, 2011; 330,000 compounds, 0.33% hits;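 active means mean of two replicates above 20%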;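 further: 0% = compound-free wells with enzyme and 100% = wells lacking proteasome; stock transfer was 100 nL into about 20 µL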
Target sequence (Q9Y5K5 whole entry, looked up): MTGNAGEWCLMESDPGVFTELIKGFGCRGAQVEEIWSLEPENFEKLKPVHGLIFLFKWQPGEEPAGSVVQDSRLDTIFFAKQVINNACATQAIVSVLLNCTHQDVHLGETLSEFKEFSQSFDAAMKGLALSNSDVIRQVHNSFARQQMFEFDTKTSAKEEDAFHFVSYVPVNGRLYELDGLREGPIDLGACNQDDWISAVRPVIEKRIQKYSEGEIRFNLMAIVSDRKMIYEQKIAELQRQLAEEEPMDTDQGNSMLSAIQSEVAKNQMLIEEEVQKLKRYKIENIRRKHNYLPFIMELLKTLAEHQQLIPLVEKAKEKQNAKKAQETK
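Material: Human UCH37 enzyme supplied as purified proteasome complex | Schedule: 30 min compound-proteasome preincubation then 25 min substrate reaction, room temperature | Detection: AMC fluorescence from Ub-AMC cleavage, excitation 355 nm, emission 460 nm | Benchmarks: Wells without proteasome as full block, compound-free enzyme plus substrate as uninhibited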
FGF22 binding: binders of human FGF22 protein, primary screen, FGF22 synaptogenesis inhibitor project, biophysical, thermal shift, single point. recombinant FGF22 thermal shift, SYPRO orange fluorescence; percent of sucrose octasulfate shift, DMSO zero. calls only at 9.99 µM. Fibroblast growth factor 22 (Homo sapiens), Q9HCT0. 340,000 compounds, 1.5% hits;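 active means melting point raised past a set limit in the mean and every replicate; inconclusive means no clear call; three in four hits are not shown here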
Target sequence (Q9HCT0 whole entry, looked up): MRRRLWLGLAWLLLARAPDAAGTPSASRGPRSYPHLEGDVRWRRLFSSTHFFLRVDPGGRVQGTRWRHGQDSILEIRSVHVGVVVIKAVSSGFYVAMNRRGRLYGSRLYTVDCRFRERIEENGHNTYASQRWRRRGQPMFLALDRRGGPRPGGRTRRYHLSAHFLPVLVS
MLL AF4-AF9 inh: inhibitors of AF4 peptide binding to AF9, primary screen, biochemical, AlphaScreen, biotin-AF4 peptide, FLAG-AF9, single point; 350,000 compounds, 0.47% hits; Protein AF-9 (Homo sapiens), P42568; inhibition, % at 10 µM; AID 651704, 2012;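 active means every replicate reaching a set inhibition limit, whatever the replicate mean, cut at about 25% in these data; inconclusive means mean inhibition reaches that limit but some replicates miss it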;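 further: 0% = plate neutral control median and 100% = total signal loss; the record names both 10 and 1 µM as test concentration; the first replicate is given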
Vif TR-FRET: inhibitors of Vif binding to APOBEC3G peptide, primary screen, biochemical, TR-FRET, GST-Vif 1-94, biotin-A3G peptide, dose response retest (AID 1117319) | Virion infectivity factor (Human immunodeficiency virus type 1 group M subtype B (isolate … | TR-FRET GST-Vif / biotin-A3G peptide binding; higher % means a stronger effect; test concentration not given here; strong numbers were not always called active | one-dose inhibition, %; IC50 in µM for titrated hits | 260,000 compounds, 0.57% hits;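 active means above the screen mean plus three standard deviations and confirmed in dose response; inconclusive means results disagree or hit not tested in dose response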;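 further: Vif residues 1-94 fused to GST binding biotinylated APOBEC3G peptide 110-148; 0% = full assay without inhibitor and 100% = GST in place of GST-Vif; retest series ran down from 100 µM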
Ecoli growth: E. coli growth inhibition, primary screen, OD600. Escherichia coli growth, 23 h; active compounds read low. OD600 absorbance (concentration not given with the values). 330,000 compounds, 0.21% hits;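 active means OD600 absorbance below the run mean of sample wells minus 3.6 SD, in any replicate, cut at about 0.56 in these data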;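 further: stock transfer was 300 nL into about 60 µL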
An asterisk follows results filed as active; i = inactive; ? = inconclusive; nt = no result given. These rows are one share of the data, so the mix of outcomes need not match the whole.

SMILES | RanGTP-Impb inh | HNF4A DNA FP | UCH37 DUB inh | FGF22 binding | MLL AF4-AF9 inh | Vif TR-FRET | Ecoli growth
Cc1ccc(NC(=O)CN2C(=O)NC3(CCCCCC3)C2=O)cc1Cl | nt | -2.0 | 5.1 | i | 0.7 | 6% | 0.7
COc1ccc(CN2CC[C@@H]3CN(C(C)=O)[C@H](c4ccccc4Br)C[C@@H]32)cc1 | nt | 1.2 | nt | i | 3.7 | nt | nt
C/C(N)=C(/C#N)C(=O)COc1ccc(Cl)cc1Cl | ? | -5.0 | 5.3 | i | -1.9 | 9% | nt
COc1ccc(/C=C/C(=O)OCC(=O)c2ccc3c(c2)NC(=O)CO3)cc1 | 2.6 | 0.4 | -3.3 | i | -3.4 | -6% | 0.68
COc1ccccc1-n1c(=O)[nH]c2c(C(N)=O)nc(CC(C)C)nc21 | -0.8 | 5.0 | -17 | i | -10 | 3% | 0.7
Cc1oc(-c2cc(F)cc(F)c2)nc1CN1CCN(C(=O)c2ccco2)CC1 | 5.7 | -0.3 | 0.9 | i | -3.1 | nt | 0.7
Clc1ccc(CN2CCN(c3ncnc4scc(-c5cccs5)c34)CC2)cc1 | 1.7 | 5.5 | 4.7 | nt | nt | 13% | 0.72
CC1(C)CC(=O)C2=C(C1)Nc1ccccc1NC2c1ccc2c(c1)OCO2 (stereo not given) | -0.6 | 4.9 | 11 | nt | nt | 7% | 0.72
CC(C)(C)n1nc2c(c1NC(=O)COc1ccc(F)cc1)CS(=O)(=O)C2 | -1.5 | -5.2 | 0.6 | i | -1.6 | nt | 0.68
C=CCn1c(SCc2ccccc2)nnc1-c1cccnc1 | 0.6 | -1.0 | 1.8 | nt | nt | 12% | 0.68
CCOC(=O)c1cc(-c2ccc(F)cc2)n(CC(=O)Nc2nccs2)c1C | -2.7 | -2.5 | 5.4 | i | 12 | nt | 0.71
Cc1ccc(S(=O)(=O)c2nc(-c3ccccc3)oc2NCCCN2CCOCC2)cc1 | 1.1 | -1.1 | 1.1 | i | 7.3 | 13% | 0.68
COc1ccc(Nc2nnc(-c3ccc(C(N)=O)cc3)c3ccccc23)cc1 | ? | 2.5 | 8.8 | i | 3.5 | nt | 0.62
O=C(O)/C=C1\NC(=O)c2ccccc21 | 0.5 | 0.5 | 4.9 | nt | nt | 7% | 0.81
CCn1c(SCC(=O)NCCc2ccccc2)nc2c(c1=O)SC(C)C2 (stereo not given) | -2.2 | -0.7 | 6.4 | i | 5.5 | 1% | 0.75

The closing three entries of the part above come first, to join the parts:
SMILES | RanGTP-Impb inh | HNF4A DNA FP | UCH37 DUB inh | FGF22 binding | MLL AF4-AF9 inh | Vif TR-FRET | Ecoli growth
COc1ccc(Nc2nnc(-c3ccc(C(N)=O)cc3)c3ccccc23)cc1 | ? | 2.5 | 8.8 | i | 3.5 | nt | 0.62
O=C(O)/C=C1\NC(=O)c2ccccc21 | 0.5 | 0.5 | 4.9 | nt | nt | 7% | 0.81
CCn1c(SCC(=O)NCCc2ccccc2)nc2c(c1=O)SC(C)C2 (stereo not given) | -2.2 | -0.7 | 6.4 | i | 5.5 | 1% | 0.75
CCOc1ccccc1CNC(=O)c1ccc(Sc2ccc(Cl)cc2)c(NC(C)=O)c1 | 0.6 | -1.8 | 4.5 | i | 2.1 | -11% | 0.78
CC(C)N(CCCNC(=O)Cn1c(=O)c2cccn2c2ccc(F)cc21)Cc1ccccc1 | 0.4 | -1.2 | -1.2 | i | 2.5 | nt | 0.67
CCOc1ccc(N(CC(=O)Nc2ccc(C)cc2)S(=O)(=O)c2c(C)noc2C)cc1 | 4.1 | -1.1 | 2.3 | i | 3.8 | ? | 0.76
CCOc1cc(C(=O)Nc2ccccc2N2CCOCC2)ccc1OCC(=O)N1CCCCC1 | -0.2 | 2.4 | 3.8 | i | -0.3 | 20% | 0.7
O=C(Nc1sc2c(c1C(=O)O)CCC2)c1cccs1 | -1.0 | -2.4 | nt | nt | nt | 5% | nt
CCOC(=O)COc1ccc2ccccc2c1/C=C/[N+](=O)[O-] | 0.9 | 1.4 | 6.6 | i | 7.8 | 16% | 0.69
CCOC(=O)c1c(NC(=O)Cn2cc([N+](=O)[O-])cn2)sc2c1CCC2 | ? | 2.1 | 1.8 | nt | nt | 65% | 0.69
COc1ccc(C(=O)N2CCN(c3ccc([N+](=O)[O-])c(NCCc4ccc(OC)c(OC)c4)c3)CC2)cc1 | -7.5 | -1.8 | 2.6 | nt | nt | nt | 0.71
Cc1cc(Cl)ccc1OCC(=O)N(Cc1cccs1)C1CCS(=O)(=O)C1 (stereo not given) | 0.5 | 4.2 | 0.2 | i | -2.6 | 9% | 0.67
CN(c1ccc(OCCOc2ccccc2Cl)cc1)S(=O)(=O)c1ccccc1 | nt | 5.1 | 0.9 | i | -3.0 | nt | 0.69
Cc1cc(C)nc(SCC(=O)N/N=C/c2cc(C)n(-c3ccccc3C)c2C)n1 | -0.6 | 0.4 | nt | nt | nt | 5% | nt
CC1C(=O)N(Cc2cn(Cc3ccco3)nn2)CCS(=O)(=O)N1Cc1ccc(-c2ccc(F)cc2Cl)cc1 (stereo not given) | nt | -2.6 | nt | i | -0.9 | nt | nt
Cc1ccc(S(=O)(=O)NCc2c(-c3ccccc3)noc2C)cc1 | 1.8 | 3.0 | 3.4 | i | -2.3 | -1% | 0.68
CCN=C1SC(CC(=O)NC(C)C)C(=O)N1CC (stereo not given) | -6.6 | -0.6 | -1.1 | nt | nt | -3% | 0.74
O=C(NCc1ccc2c(c1)OCO2)c1ccc(CSCc2ccc(Cl)cc2)o1 | -0.5 | 2.4 | 1.8 | nt | nt | -6% | 0.67
Cc1cc(OCCNCCO)cc(C)c1Cl | ? | 2.0 | 2.2 | nt | nt | 3% | 0.72
O=C(CN1C(=O)C2C3C=CC(C3)C2C1=O)Nc1ccc2nccnc2c1 (stereo not given) | 3.0 | -0.3 | -152 | i | -3.1 | 1% | 0.74
COc1ccc(S(=O)(=O)Nc2cc(C(=O)NCCCOC(C)C)ccc2N2CCOCC2)cc1 | 4.3 | 6.4 | 3.4 | i | -1.1 | -1% | 0.65
COc1ccc2c(Cl)c(C(=O)OCC(=O)c3ccc4c(c3)NC(=O)CO4)sc2c1Cl | nt | 0.1 | -3.5 | i | -0.7 | 22% | 0.7
CCOC(=O)c1c(C)[nH]c(C(=O)OC)c1CCC(=O)OC | -2.8 | 0.7 | 0.8 | nt | nt | 31% | 0.68
COc1ccc(C(CCNCc2ccc(N(C)C)cc2)C(C)C)cc1 (stereo not given) | 0.4 | 4.2 | 1.7 | i | 41* | nt | 0.63
CC12COC3(C(=O)Nc4ccc(F)cc4)CC1CCC32C (stereo not given) | 0.5 | 0.9 | 1.4 | nt | -3.9 | -4% | 0.67
COc1ccccc1NC(=O)NCc1ccco1 | -0.6 | 1.4 | 2.6 | i | 2.2 | 2% | 0.66
O=C(Nc1ccc(Oc2ccc(Cl)cc2)c(Cl)c1)c1cc(I)cc(I)c1O | -3.1 | -4.3 | 0.7 | i | -3.5 | nt | nt
COc1ccc(N2CCN(C(=O)NCc3ccc(C)cc3)CC2)cc1 | -5.7 | 1.4 | 4.0 | i | 4.6 | 2% | 0.68
CC(C)CC1(C(=O)NCCN2CCOCC2)C=CCN1C(=O)c1ccccc1 (stereo not given) | -1.7 | 3.6 | -0.3 | i | -2.7 | 3% | 0.62
c1ccc2c(c1)OCc1cn[nH]c1-2 | -4.0 | 2.4 | 3.5 | i | -31 | 2% | 0.7
CCc1ccc(CCC(=O)Nc2ccc(C)c(C)c2)o1 | 0.6 | 0.1 | -0.1 | nt | nt | 1% | 0.64
COC1CC(C)C(OC)c2cc(O)cc(c2O)NC(=O)C(C)=CC=CC(C)C(OC(N)=O)C(C)=CC(C)C1OC (stereo not given) | nt | -1.1 | nt | i | -6.0 | 29% | nt
COC(=O)Cn1c2ccc(Cl)cc2c2nc(C)sc21 | 3.9 | -1.9 | 6.6 | i | -4.2 | -8% | 0.71
CC(O)(c1ccc(F)c(F)c1)c1nc(-c2csc3ccccc23)cs1 (stereo not given) | nt | 4.4 | nt | i | -0.8 | nt | nt
Cc1ccc(C(=O)N2CCn3c(C)ccc3C2C)cc1 (stereo not given) | 3.5 | 9.4 | -2.3 | i | 1.4 | -4% | 0.68
Cc1ccccc1CC(=O)Nc1sc(C(C)C)cc1C(=O)N1CCOCC1 | 0.1 | -2.3 | 7.6 | i | -1.5 | nt | 0.68
Cc1sc2ncnc(N)c2c1C | ? | 6.6 | 2.8 | i | 3.5 | 7% | 0.66
COC(=O)c1ccc(-c2sc3nc(N4CCOCC4)c4c(c3c2N)CC(C)(C)OC4)o1 | 24* | 8.7 | -24 | nt | nt | -10% | 0.76
CC(=O)N/C(=C/c1ccccc1)C(=O)N1CCCCC1 | 0.8 | 2.5 | 2.4 | nt | nt | nt | 0.69
CCCCNC(=O)C1(C)CCC(=O)N1C1CCN(Cc2ccccc2)CC1 (stereo not given) | nt | 2.0 | nt | i | 1.6 | nt | nt
Cc1ccc(NC(=O)CSc2nc3ccccc3c(=O)n2CCCC(=O)NCCCN2CCOCC2)cc1 | -4.0 | -2.1 | 0.2 | nt | -7.6 | -3% | 0.68
CCO/N=C(/C)c1c(O)c(C)c(-c2ccccc2)n(-c2ccccc2)c1=O | 6.9 | 4.8 | nt | nt | nt | -7% | nt
Cc1c(C(=O)OCC(=O)NCCN2C(=O)CSC2=O)oc2c1ccc1ccccc12 | 1.5 | -0.9 | -15 | i | -6.7 | -8% | 0.74
CCN(CC)S(=O)(=O)c1ccc(C2CNC(=O)C2)cc1 (stereo not given) | -3.1 | -0.2 | -0.3 | i | -4.4 | 0% | 0.66
O=C1N(c2cccc3ccccc23)C(c2ccccc2)N2CCCN12 (stereo not given) | 2.3 | -4.0 | 0.5 | nt | nt | 4% | 0.71
CC(/C=C/c1ccc2c(c1)OCO2)=N\NC(=O)C(O)c1ccccc1 (stereo not given) | -1.2 | -0.1 | nt | i | -1.8 | 5% | nt
N#Cc1ccc(N2CCN(C(=O)c3cccc(F)c3)CC2)c(F)c1 | -2.1 | 1.6 | 4.0 | i | -7.2 | 91µM* | 0.72
COc1cc(/C=C\C(=O)OCn2nnc3ccccc3c2=O)cc(OC)c1OC | 2.2 | 2.8 | 3.8 | i | 17 | -4% | 0.76
O=C1c2cccc(Cl)c2C(=O)c2c1cccc2N1CCCC1 | -1.8 | 3.2 | 6.8 | nt | nt | 8% | 0.75
COc1ccc(OC)c(N2C(=O)c3ccccc3C2c2nnnn2-c2ccc3c(c2)OCCO3)c1 (stereo not given) | nt | 1.6 | nt | i | 2.1 | nt | nt
CCCCCCCCN1C(=O)[C@H](CC(=O)NCc2ccc(OC)c(OC)c2)C[C@@]2(C(=O)OC)CCCCC=C12 | nt | -3.7 | nt | i | -1.3 | nt | nt
COc1ccccc1CNC(=O)c1ccc(-c2ccccc2C(F)(F)F)o1 | 1.2 | 4.1 | 4.2 | i | 0.4 | ? | 0.7
CNC(=O)CSc1nnc(-c2cc(C)cc(C)c2)o1 | -2.4 | -4.4 | 2.0 | i | -9.1 | 0% | 0.71
